FGF22 binding: binders of human FGF22 protein, primary screen, FGF22 synaptogenesis inhibitor project, biophysical, thermal shift, single point | Fibroblast growth factor 22 (Homo sapiens), Q9HCT0 | recombinant FGF22 thermal shift, SYPRO orange fluorescence; percent of sucrose octasulfate shift, DMSO zero | calls only at 9.99 µM | actives 1.5% (n = 340,000) | AID 651658, 2012;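 active means melting point raised past a set limit in the mean and every replicate; inconclusive means no clear call; three in four hits are not shown here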
Target sequence (Q9HCT0 whole entry, looked up): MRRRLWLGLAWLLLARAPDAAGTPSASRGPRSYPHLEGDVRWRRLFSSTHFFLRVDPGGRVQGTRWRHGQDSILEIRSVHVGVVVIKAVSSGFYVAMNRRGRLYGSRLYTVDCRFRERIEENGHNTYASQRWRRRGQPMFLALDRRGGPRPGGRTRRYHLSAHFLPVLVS
E coli growth: E. coli growth inhibition, primary screen, OD600; Escherichia coli growth, 23 h; active compounds read low; OD600 absorbance (concentration not given with the values); actives 0.21% (n = 330,000); AID 1053175, 2014;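 active means OD600 absorbance below the run mean of sample wells minus 3.6 SD, in any replicate, cut at about 0.56 in these data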;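 further: stock transfer was 300 nL into about 60 µL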
AF4-AF9 inh: inhibitors of AF4 peptide binding to AF9, primary screen, biochemical, AlphaScreen, biotin-AF4 peptide, FLAG-AF9, single point | Protein AF-9 (Homo sapiens), P42568 | inhibition, % at 10 µM | actives 0.47% (n = 350,000) | AID 651704, 2012;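 active means every replicate reaching a set inhibition limit, whatever the replicate mean, cut at about 25% in these data; inconclusive means mean inhibition reaches that limit but some replicates miss it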;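 further: 0% = plate neutral control median and 100% = total signal loss; the record names both 10 and 1 µM as test concentration; the first replicate is given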
Target sequence (P42568 whole entry, looked up): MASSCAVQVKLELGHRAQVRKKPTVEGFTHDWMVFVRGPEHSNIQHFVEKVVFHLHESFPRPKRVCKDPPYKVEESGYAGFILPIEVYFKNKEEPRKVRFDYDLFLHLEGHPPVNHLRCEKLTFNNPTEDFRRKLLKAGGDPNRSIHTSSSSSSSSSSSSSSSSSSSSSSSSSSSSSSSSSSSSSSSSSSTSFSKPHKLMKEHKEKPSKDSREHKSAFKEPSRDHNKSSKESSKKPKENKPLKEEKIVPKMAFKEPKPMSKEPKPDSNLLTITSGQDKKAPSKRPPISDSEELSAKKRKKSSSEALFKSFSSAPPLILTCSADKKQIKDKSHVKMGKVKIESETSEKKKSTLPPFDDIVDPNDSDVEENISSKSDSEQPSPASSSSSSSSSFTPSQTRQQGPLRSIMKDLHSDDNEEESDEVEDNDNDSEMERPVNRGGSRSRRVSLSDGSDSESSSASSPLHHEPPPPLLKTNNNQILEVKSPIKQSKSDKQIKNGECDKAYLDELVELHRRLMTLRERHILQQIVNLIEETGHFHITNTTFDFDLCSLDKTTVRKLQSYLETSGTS
Vif TR-FRET: inhibitors of Vif binding to APOBEC3G peptide, primary screen, biochemical, TR-FRET, GST-Vif 1-94, biotin-A3G peptide, dose response retest (AID 1117319) | TR-FRET GST-Vif / biotin-A3G peptide binding; higher % means a stronger effect; test concentration not given here; strong numbers were not always called active | one-dose inhibition, %; IC50 in µM for titrated hits | Virion infectivity factor (Human immunodeficiency virus type 1 group M subtype B (isolate … | actives 0.57% (n = 260,000);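 active means above the screen mean plus three standard deviations and confirmed in dose response; inconclusive means results disagree or hit not tested in dose response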;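 further: Vif residues 1-94 fused to GST binding biotinylated APOBEC3G peptide 110-148; 0% = full assay without inhibitor and 100% = GST in place of GST-Vif; retest series ran down from 100 µM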
ALR H2O2 inh: inhibitors of human ALR sulfhydryl oxidase, primary screen, biochemical, H2O2 detection, HRP-luminol luminescence, single point | FAD-linked sulfhydryl oxidase ALR (Homo sapiens), P55789 | actives 3.8% (n = 290,000) | inhibition, % (concentration not given with the values) | purified ALR, DTT oxidation;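 active means mean and each replicate at 75% or more; inconclusive means only one of the two met; inactive means neither met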;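 further: stock transfer was 7.5 nL into about 7.5 µL; 0% = neutral wells and 100% = wells with inactivated enzyme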
Target sequence (P55789 whole entry, looked up): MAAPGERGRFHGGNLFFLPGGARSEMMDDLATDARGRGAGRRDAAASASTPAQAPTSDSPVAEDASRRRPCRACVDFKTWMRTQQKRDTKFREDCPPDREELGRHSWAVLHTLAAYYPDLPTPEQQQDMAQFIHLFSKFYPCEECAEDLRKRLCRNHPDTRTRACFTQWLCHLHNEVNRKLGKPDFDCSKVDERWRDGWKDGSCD
HNF4A DNA FP: change in binding of human HNF4A to DNA, primary screen, biochemical, fluorescence polarization, FITC-DNA; AID 1224865, 2016; actives 0.3% (n = 360,000); activity change, % at 10 µM; 1 h; Hepatocyte nuclear factor 4-alpha (Homo sapiens), P41235; in the data active means activity change above about 30%, passing the limit was not always enough;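 further: controls were the assay level and a saturating level of protein; the project sought stronger binding though the title names inhibitors; some compounds called inactive have numbers as strong as hits; positive values seem to mean higher polarization but the record does not say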
rRNA inh HTS: reduced GFP signal of wild-type E. coli, primary screen, bacterial rRNA inhibitor project, GFP/RFP fluorescence, OD600, single point; actives 1.6% (n = 350,000); E. coli WT GFP vs humanized-ribosome RFP mutants, 24 h; active compounds read low; DMSO median 0, no signal -100; GFP signal change (wild-type ribosome), % (concentration not given with the values);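 active means significant combined selectivity score with lowered wild-type GFP, culture density cut under 30%, mutant RFP and density less affected; inactive means any of these conditions unmet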; further: one replicate is shown; some compounds called inactive have numbers as strong as hits
rRNA inh HTS OD600: also measured in rRNA inh HTS; calls as there; OD600 change, %; measured here: OD600 growth;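 optical density of the mix in the first replicate; 0 = DMSO median and -100 = no signal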
rRNA inh HTS RFP: recorded beside rRNA inh HTS, whose call it bears; RFP signal change, %; measured here: RFP humanized mutant strains;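 first replicate; 0 = DMSO median and -100 = no signal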
Starred values were filed as active, the others as inactive; i = inactive; u = inconclusive; x = no result given.

SMILES	FGF22 binding	E coli growth	AF4-AF9 inh	Vif TR-FRET	ALR H2O2 inh	HNF4A DNA FP	rRNA inh HTS	rRNA inh HTS OD600	rRNA inh HTS RFP
COc1ccc(NC(=O)c2cc(-c3ccncc3)nc3ccc(Br)cc23)cc1OC	i	0.73	-3.4	x	-13	18	6	23	3.2
Cc1c(Cl)cccc1NC(=O)CSc1nncn1-c1ccccn1	i	0.66	1.0	x	-22	0.8	7	2	-1.7
COCCN1C(=O)CCC1(C)C(=O)NC1CCCC1 (centres undefined)	i	x	-0.4	x	x	6.3	6	2	3.3
C[C@H]1CN([C@@H](C)CO)S(=O)(=O)c2ccc(-c3cncnc3)cc2O[C@@H]1CN(C)C(=O)C1CCC1	i	x	0.9	x	x	x	2	17	2.4
CC1(C)C(=O)C2(CCCC2)C(=O)OC1c1ccco1 (centres undefined)	x	0.73	x	1%	-2	3.2	x	x	x
Cc1ccc(S(=O)(=O)C(C#N)c2nc3ccccc3nc2N2CC(C)OC(C)C2)cc1C (centres undefined)	x	0.6	x	2%	-27	14	x	x	x
C[C@H](CO)N1C[C@H](C)[C@H](CN(C)S(=O)(=O)c2cccs2)Oc2c(NC(=O)C3CC3)cccc2C1=O	i	x	1.0	x	x	x	-4	5	0.7
Cc1ccc([C@H]2N[C@]3(CCCN(Cc4ccccc4)C3=O)[C@H]3C(=O)N(Cc4ccccc4)C(=O)[C@@H]23)cc1	i	x	3.0	8%	x	2.0	-6	-23	0.4
COc1cccc(-c2ccc([C@@H]3[C@H]4CN(C(=O)c5cccnc5)CC(=O)N4[C@H]3CO)cc2)c1	i	x	0.2	x	x	x	-1	-2	-4.0
COCCCNC(=O)C[C@H]1C[C@@]2(C(=O)OC)C(=C[C@H](C(C)(C)C)O[C@@H]2C)N(CCc2ccc(OC)c(OC)c2)C1=O	i	x	-2.3	x	x	x	-2	-3	0.0
COCC(=O)N(C)C[C@H]1Oc2cc(-c3ccncc3)ccc2S(=O)(=O)N([C@@H](C)CO)C[C@@H]1C	i	x	0.1	x	x	x	1	-1	1.5
CNC[C@H]1OCCCC[C@@H](C)Oc2ccc(NC(=O)c3ccccc3)cc2C(=O)N([C@H](C)CO)C[C@@H]1C	i	x	-1.6	x	x	x	5	9	0.8
O=C(Cc1ccc(Br)cc1)Nc1ccccc1Cl	x	0.75	x	-2%	2	0.2	x	x	x
COC(=O)c1cnc2ccccc2n1	x	0.75	x	-3%	-1	-1.4	x	x	x
COc1ccc(/C=C/C(=O)N2CCC(c3ccccc3)C2)cc1 (centres undefined)	x	0.67	x	x	-15	4.2	x	x	x
Cc1noc(NS(=O)(=O)c2ccc(N3CC(O)=C(c4ccccc4)C3=N)cc2)c1C	x	0.7	x	0%	8	-3.3	19	10	1.1
CCOc1cc(/C=C(/C#N)C(=O)Nc2ccc(OC)cc2)ccc1OCc1ccc(C(=O)O)cc1	i	0.68	-4.0	x	0	0.8	3	3	-1.6
CCCCn1cnc2c([nH]c3ccccc32)c1=O	x	0.71	x	7%	1	-1.9	x	x	x
O=C(c1cccs1)n1nc(-c2ccccc2)nc1NCc1ccco1	x	0.66	x	-5%	3	1.9	x	x	x
COc1ccc(S(=O)(=O)n2nc(OC(=O)c3cccs3)cc2NC(=O)c2cccs2)cc1	i	0.7	-1.0	-5%	-4	2.0	4	14	-1.4
Cc1nc([N+](=O)[O-])cn1CCCCN1C(=O)c2ccccc2C1=O	i	0.68	-2.2	-3%	-6	-3.4	1	-13	-0.1
Cn1c(SCC(=O)c2ccccc2F)nnc1C1CC1	x	0.73	x	8%	37	1.1	x	x	x
CSc1cccc(NC(N)=S)c1	i	0.69	1.5	0%	3	0.3	x	x	x
Cn1cccc1C(=O)NC(=O)COC(=O)CCNS(=O)(=O)c1ccc(Cl)cc1	i	0.67	4.4	x	x	-4.3	0	1	1.9
COc1ccc(CCNC(=O)c2cc(S(=O)(=O)N3CCOCC3)ccc2N2CCCC2)cc1OC	i	0.64	1.0	-5%	-14	0.1	18	13	2.4
C[C@@H]1CN([C@H](C)CO)C(=O)c2cc(-c3ccc(C#N)cc3)cnc2O[C@H]1CN(C)C(=O)Nc1ccc(F)cc1	i	x	0.4	x	x	x	-1	11	-1.7
CC1(C)CC(CCNC(=O)c2ccco2)CC(C)(C)N1	x	0.64	x	1%	1	2.6	x	x	x
CN(C[C@@H](Cc1cccc2ccccc12)N(C[C@H](Cc1ccccc1)N(CCc1ccccc1)N=O)N=O)N=O	i	x	-3.6	17%	-6	2.8	15	15	-0.9
C[C@]12c3[nH]c4cc(-c5ccco5)ccc4c3CCN1C(=O)[C@@H](CC(=O)NCCC1=CCCCC1)C[C@@H]2C(=O)N1CCOCC1	x	0.7	x	-1%	x	-2.1	x	x	x
CC(=O)NC12CC3CC(C1)CC(C(=O)NCC(=O)Nc1c(C)cc(C)cc1C)(C3)C2	i	0.66	-2.4	-5%	3	6.1	17	13	4.0
Cc1ccc(CN2CCN(C3CSCCSC3)CC2CCO)cc1 (centres undefined)	i	0.69	2.4	-1%	2	-1.2	0	3	0.8
COc1cc(SC)ccc1C(=O)Nc1cccc(C)n1	i	0.69	1.0	-2%	1	0.4	-4	-2	-0.1
O=C(C1CCC1)N1CC2(C1)[C@@H](c1ccccc1)[C@@H](CO)N2C(=O)c1ccccn1	i	x	-0.8	x	x	x	1	13	0.2
CCOC(=O)N1CCN(C(=O)C[C@@H]2C[C@@]3(C(=O)OC)CCCCC=C3N(Cc3cccc4ccccc34)C2=O)CC1	i	x	7.0	x	x	-1.4	-8	-5	1.6
COC1C(OC(=O)/C=C/C=C/C=C/C=C/C(=O)O)CCC2(CO2)C1C1(C)OC1CC=C(C)C (centres undefined) (tested in a mixture with another compound)	x	x	2.6	5%	x	-2.2	8	3	-0.5
O=S(=O)(NCC(c1cccs1)N1CCc2ccccc2C1)c1ccccc1 (centres undefined)	i	0.63	0.3	-1%	-10	-0.2	-7	-33	-1.1
c1coc(C2=NC(c3ccco3)C(c3ccco3)N2)c1 (centres undefined)	x	0.67	x	-4%	x	1.2	x	x	x
COc1cc2cc(CN(Cc3nnnn3Cc3ccco3)C3CCCCC3)c(=O)[nH]c2cc1OC	x	0.68	x	u	-3	-19	x	x	x
CC1(C(=O)NNC(=S)NCc2ccco2)CC1(Cl)Cl (centres undefined)	i	0.69	-1.3	4%	15	0.0	17	14	1.2
O=[N+]([O-])c1ccc2nc(NN=Cc3ccc(O)cc3)sc2c1	i	0.67	2.2	0%	x	4.2	-12*	-9.2*	1.0*
CS(=O)(=O)N(CC(=O)NCCC1=CCCCC1)c1ccc2c(c1)OCO2	x	0.67	x	28%	-20	-1.7	x	x	x
Cc1nn(-c2ccccc2)c(C)c1C(=O)OCC(=O)N1c2ccccc2NC(=O)C1(C)C	x	0.75	x	-1%	-8	2.7	x	x	x
Cc1ccc(NC(=O)CCNS(=O)(=O)c2cccc3nonc23)cc1	x	0.71	x	2%	-5	-0.3	x	x	x
O=C(Nc1ccc2nc(-c3cccs3)c(-c3cccs3)nc2c1)NC1CC1	x	0.72	x	-3%	-19	19	x	x	x
CO[C@H]1CN(C)C(=O)c2cc(NC(=O)NC3CCCCC3)ccc2OC[C@H](C)N(C(C)=O)C[C@@H]1C	i	x	-0.1	x	x	x	-1	1	0.5
COc1ccc(CN(C)C[C@@H]2Oc3ccc(NC(=O)Cc4cn(C)c5ccccc45)cc3C(=O)N([C@H](C)CO)C[C@@H]2C)cc1	i	x	14	x	x	x	2	5	2.9
Nn1c(SCc2cc([N+](=O)[O-])cc3c2OCOC3)nnc1-c1ccccn1	i	0.73	-14	-8%	-10	-0.1	13	5	-5.7
COc1cc2c(cc1OC)C(C(=O)Nc1cccc(C)n1)C(c1cccnc1)N(C)C2=O (centres undefined)	x	0.71	x	-12%	5	-2.0	x	x	x
CN(c1ccc(OCC(=O)N2CCC(C(N)=O)CC2)cc1)S(=O)(=O)c1cccs1	x	0.68	x	3%	4	0.0	x	x	x
CCOc1ccc(/C(O)=C2/C(=O)C(=O)N(c3cc(C)on3)C2c2ccc(C(=O)OC)cc2)cc1 (centres undefined)	x	0.71	x	u	20	0.6	x	x	x

(continued)
SMILES	FGF22 binding	E coli growth	AF4-AF9 inh	Vif TR-FRET	ALR H2O2 inh	HNF4A DNA FP	rRNA inh HTS	rRNA inh HTS OD600	rRNA inh HTS RFP
Cc1ccccc1Nc1c(-c2ccccn2)nc2c(C)cccn12	i	0.67	34*	-8%	x	2.6	-56	-80	-26
O=C1CC2(CCN(C(=O)c3ccccc3F)CC2)Oc2ccccc21	i	0.63	-0.7	x	0	-0.1	0	-4	-1.6
O=C(COc1ccccc1Br)N1CCN(C(=O)c2ccco2)CC1	i	0.69	-2.1	x	0	0.0	7	-3	0.4
CNC(=O)C[C@H]1CC[C@H]2[C@@H](COC[C@@H](O)CN2C(=O)c2ccc3c(c2)OCO3)O1	i	x	-2.0	x	x	x	1	4	-3.9
COc1cc(/C=N/NC(=O)c2cc(C)oc2C)cc(OC)c1OC	i	x	1.0	-5%	0	5.1	13	10	-1.6
CCOc1ccc(S(=O)(=O)N(CC)CC(=O)NCc2ccco2)cc1C	i	0.65	1.8	x	48	-3.5	-2	-10	1.3
COc1ccc(CS(=O)(=O)CC(C)(O)c2ccccc2)cc1 (centres undefined)	i	0.68	-0.1	-2%	-8	3.3	3	-1	0.9
CC(=O)c1sc(NC(=O)C2=NN(c3ccccc3)C(=O)CC2)nc1C	x	0.74	5.4	-4%	x	3.1	-20	-26	-6.3
Cc1ccc(NC(=O)CCCc2ccccc2)c([N+](=O)[O-])c1	i	0.71	4.6	x	14	-1.0	-2	1	-7.2
C[C@@H]1CN([C@@H](C)CO)C(=O)Cc2cc(NC(=O)Nc3ccc(C(F)(F)F)cc3)ccc2O[C@H]1CN(C)C	i	x	6.7	x	x	x	4	-1	5.6
COc1ccc2c3c(n(C)c2c1)[C@@H](CO)N(Cc1ccncc1)CC31CN(C(=O)C2CC2)C1	i	x	-1.4	x	x	x	2	-4	-1.5
CCOC(=O)C1(Cc2cccc(OC)c2)CCCN(C(=O)CCc2cccnc2)C1 (centres undefined)	i	0.65	-0.4	5%	-6	-1.0	6	-6	-2.9

In another format: entries from further up
molecule | FGF22 binding | E coli growth | AF4-AF9 inh | Vif TR-FRET | ALR H2O2 inh | HNF4A DNA FP | rRNA inh HTS | rRNA inh HTS OD600 | rRNA inh HTS RFP
Cc1ccc(NC(=O)CCCc2ccccc2)c([N+](=O)[O-])c1 | i | 0.71 | 4.6 | x | 14 | -1.0 | -2 | 1 | -7.2
C[C@@H]1CN([C@@H](C)CO)C(=O)Cc2cc(NC(=O)Nc3ccc(C(F)(F)F)cc3)ccc2O[C@H]1CN(C)C | i | x | 6.7 | x | x | x | 4 | -1 | 5.6
COc1ccc2c3c(n(C)c2c1)[C@@H](CO)N(Cc1ccncc1)CC31CN(C(=O)C2CC2)C1 | i | x | -1.4 | x | x | x | 2 | -4 | -1.5

Screening data deposited in PubChem BioAssay by several laboratories.

Not all compounds are listed; rates above refer to the full screens.
